GALR2 ag: GALR2 receptor agonists, primary screen, cell-based; activation, %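 (tested at 5 µM)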; Galanin receptor type 2 (Homo sapiens), O43603; AID 803, 2007; GALR2-expressing cells, agonist activation read-out; actives 0.48% (n = 140,000);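 active means above mean plus 3 SD of all compounds, about 5% in these data, not always enough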;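 further: 0% = vehicle buffer wells and 100% = reference agonist at full effect; tested in CHO reporter cells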
Target sequence (O43603 whole entry, looked up): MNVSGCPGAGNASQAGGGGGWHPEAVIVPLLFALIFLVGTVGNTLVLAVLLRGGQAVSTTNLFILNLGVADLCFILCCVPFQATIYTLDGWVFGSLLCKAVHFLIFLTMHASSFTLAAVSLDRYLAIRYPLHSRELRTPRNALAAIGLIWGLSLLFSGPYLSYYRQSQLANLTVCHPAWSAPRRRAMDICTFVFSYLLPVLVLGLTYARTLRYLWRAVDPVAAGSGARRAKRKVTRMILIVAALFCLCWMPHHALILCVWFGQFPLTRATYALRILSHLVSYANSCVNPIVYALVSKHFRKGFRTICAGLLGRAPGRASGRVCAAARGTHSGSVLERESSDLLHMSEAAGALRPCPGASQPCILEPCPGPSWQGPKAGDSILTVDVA
RGS16-Gao: modulators of RGS16 binding to Galphao, primary screen, biochemical, human proteins, multiplexed bead flow cytometry. bead-based flow cytometry RGS16-Galphao binding, fluorescence; actives lie on both sides. binding response (% of control), % at 10 µM. actives 0.38% (n = 220,000). AID 1441, 2008;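 active means below 25% or above 175%, edge rows of some plates excepted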;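 further: Galphao activated by GDP with aluminum fluoride before binding; 100% = wells without compound and 0% = beads without RGS; some results beyond the cut were filed as inactive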
Target sequence (O15492 whole entry, looked up): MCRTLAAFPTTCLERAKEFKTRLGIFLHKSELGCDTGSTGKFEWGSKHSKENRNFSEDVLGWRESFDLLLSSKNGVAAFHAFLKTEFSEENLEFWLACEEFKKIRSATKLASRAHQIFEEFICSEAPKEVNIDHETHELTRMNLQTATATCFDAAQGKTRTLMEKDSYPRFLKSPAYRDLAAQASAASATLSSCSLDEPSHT
Target sequence (P09471 whole entry, looked up): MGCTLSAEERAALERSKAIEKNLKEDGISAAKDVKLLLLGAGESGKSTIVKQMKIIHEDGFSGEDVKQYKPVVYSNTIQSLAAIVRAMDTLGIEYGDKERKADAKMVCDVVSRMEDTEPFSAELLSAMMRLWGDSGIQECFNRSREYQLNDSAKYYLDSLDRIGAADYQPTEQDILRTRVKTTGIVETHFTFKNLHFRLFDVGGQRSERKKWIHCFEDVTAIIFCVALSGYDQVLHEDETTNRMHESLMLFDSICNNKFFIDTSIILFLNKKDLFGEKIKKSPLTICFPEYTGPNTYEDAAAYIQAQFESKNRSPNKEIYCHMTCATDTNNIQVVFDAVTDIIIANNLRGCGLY
HSV augment: enhancers of HSV replication in host cells, fold increase, host cell viability | HSV replication augmentation in cells | maximum fold increase | actives 0.005% (n = 220,000);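 active means peak rise of 1.5-fold or more in the series; inconclusive means self-fluorescent or not available for retest; tested in PC3 cells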;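 further: first round at 10 µM; read as green reporter fluorescence; hits show the peak of a series up to 25 µM; 1 = signal of infected wells without compound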
PKD1 inh: inhibitors of human PKD1 kinase, biochemical, fluorescence polarization. Serine/threonine-protein kinase D1 (Homo sapiens), Q15139. PKD1 kinase fluorescence polarization assay. inhibition, %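 (about 10 µM by stock and volumes)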. actives 0.056% (n = 200,000). AID 797, 2007;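 active means inhibition of 50% or more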;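 further: controls were vehicle for no effect and a reference inhibitor for full effect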
INS promoter inh: inhibitors of insulin promoter-driven GFP, primary screen, imaging, TRM-6 cells (human fetal islet line), eGFP reporter, cell count | inhibition, % at 2 µM | reporter expression induced with tamoxifen | AID 1273, 2008 | actives 0.9% (n = 130,000);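 active means inhibition above the mean plus 3 SD, with well images judged a real hit on visual review, cut at about 60% in these data, passing the limit was not always enough; inconclusive means inhibition over the cutoff but images rejected on review; inactive means inhibition not above the cutoff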
INS promoter inh cell count: second read-out of INS promoter inh, no call of its own (marks repeat the call); normalized cell count, %; measured here: cell count, toxicity; reference of the scale not given here;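 cells exposed to compound for 48 h; stained nuclei by imaging scaled within each plate; lower means fewer cells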
HSV augment primary fold: second read-out of HSV augment, no call of its own (marks repeat the call); fold increase; compound at 10 µM; measured here: primary screen fold increase 10 uM; tested in PC3 cells;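 GFP signal in the first replicate; 1 = infected wells without compound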
Starred values were filed as active, the others as inactive; i = inactive; u = inconclusive; x = no result given; & = joins results of further samples; [ ] = another dose, or the depositor's remark.

SMILES	GALR2 ag	RGS16-Gao	HSV augment	HSV augment primary fold	PKD1 inh	INS promoter inh	INS promoter inh cell count
Cc1cc(NC(=O)COC(=O)c2c(C)nn(-c3ccccc3)c2C)no1	-1.3	98	i	0.88	-5	x	x
CCCc1cc(C(=O)N/N=C/c2ccc(C)o2)c2ccccc2n1	-2.9	125	i	0.82	9	x	x
O=C(N/N=C1/CCCc2ccccc21)C(c1ccccc1)c1ccccc1	-2.2	101	i	0.82	-12	x	x
O=C(NCCCN1CCOCC1)c1cc(Cl)ccc1[N+](=O)[O-]	-0.1	105	i	0.97	5	-8	162
CCC(C)NC(=O)Nc1ccccc1C (centres undefined)	-1.8	105	i	0.95	-4	25	138
N=c1c(S(=O)(=O)c2ccc(Cl)cc2)cc2c(=O)n3ccccc3nc2n1CCN1CCOCC1	8.3*	108	x	x	5	x	x
O=c1cc2[nH]c3ccccc3c(=O)n2nc1-c1ccccc1	-3.1	99	i	0.95	-7	48	127
COc1ccccc1OCCn1cc(/C=N/NC(N)=S)c2ccccc21	x	112	i	0.88	-3	15	103
COc1ccc(C(=O)NCC(=O)NC2=NCCS2)cc1	-1.7	111	i	1	-2	x	x
COc1cccc(-c2nnc3n2N=C(c2cccc(Br)c2)CS3)c1	-0.6	103	i	1.1	-4	x	x
COc1cc(NC(=O)COC(C)=O)c(C)cc1[N+](=O)[O-]	-0.1	103	i	1	0	x	x
COc1ccc(Cl)cc1S(=O)(=O)N1CCN(CC(=O)C(C)(C)C)CC1	-1.4	99	i	0.86	-1	-77	84
COCCCNC(=O)C(CC(N)=O)NC(=O)OCc1ccccc1 (centres undefined)	x	88	i	0.89	x	x	x
CCN(CC)CCNC(=O)c1cn(-c2ccccc2)nc1-c1cccs1	-1.1	103	x	x	-3	-12	142
CCOC(=O)C1(Cc2ccc(OC)cc2)CCN(C(=O)c2cncs2)CC1	x	97	i	0.93	-6	x	x
CCOC(=O)c1ccc2ncc(C(=O)OCC)c(NCCCN3CCOCC3)c2c1	-3.0	99	i	0.99	-12	x	x
CSc1nc(N)c2c3c(sc2n1)COC(C(C)C)C3 (centres undefined)	-2.9	111	i	1.1	-10	-7	51
COc1ccc(OCCSc2nc3ccccc3c(=O)[nH]2)cc1	-0.1	105	i	0.9	-7	x	x
Cc1ccc(Cn2nnc3c(=O)n(CC(=O)NCC4CCCO4)cnc32)cc1 (centres undefined)	-0.3	101	i	0.76	8	x	x
CCCN1CCN(CCCNC(=O)Cn2nc(-c3ccccc3)ccc2=O)CC1	-0.4	103	i	0.8	10	x	x
CCN(CC)c1cc2nonc2c2nonc12	-1.9	97	i	1	-15	x	x
CCSC1=N/C(=C\C=C2/Oc3ccccc3N2CC)C(=O)S1	x	99	u	x	x	x	x
CCOC(=O)/C(=N\Nc1ccc(Cl)cc1)Sc1nnc(-c2ccc(OC)cc2)n1C	-1.2	27	i	0.96	-3	-29	48
CC(=C1C(=O)c2ccccc2C1=O)N1CCN(Cc2ccccc2)CC1	-3.6	98	i	1	-9	-26	112
O=C(N/N=C/C=C/c1ccccc1[N+](=O)[O-])c1cccnc1	x	102	i	1.1	1	x	x
Cc1nc(NNC(=O)c2ccc(Cl)cc2Cl)cc(-c2ccccc2)n1	-1.9	94	i	0.85	6	6	87
CCCOc1ccc(/C=N/NC(=O)C(=O)Nc2ccccn2)cc1	1.9	108	i	1	-5	-4	98
Cc1ccc(C(C)NC(=O)C2CCCO2)cc1C (centres undefined)	1.9	x	i	0.85	-7	21	63
Cc1cccc(OCC(=O)O/N=C(\N)Cc2ccc([N+](=O)[O-])cc2)c1	x	98	i	1.1	10	x	x
COc1ccc2c(c1)SCCC2=O	-1.8	102	i	1.1	-3	10	81
CCC(C)(NC(=O)CNC(C)=O)C(=O)NC1CCCCC1 (centres undefined)	-0.9	101	i	0.98	2	69*	38*
CCC(C)(C)NC(=O)c1ccc2c(c1)S(=O)(=O)c1ccccc1C2=O	0.6	92	i	0.87	1	13	100
CC(C)OCCCNC(=O)c1c(N)n(/N=C/c2ccccn2)c2nc3ccccc3nc12	1.6	84	i	0.75	-11	x	x
CC(C)Cn1c(=O)c(-[n+]2ccccc2)c([O-])c2ccccc21	x	97	i	0.96	1	-67	117
CCCCCn1c(CNC(=O)c2cccs2)nc2ccccc21	-1.2	109	i	0.83	-3	-107	90
CCOC(=O)c1ccc(N/C=C/C(=O)c2ccc(OC)cc2)cc1	-2.3	97	i	0.96	0	x	x
CCCCC(=O)N/N=C/c1sccc1C	-0.2	100	i	1.1	1	-8	60
CNC(=O)c1[nH]cnc1C(=O)N[C@@H](CCCCNC(=O)OC(C)(C)C)C(=O)OC(C)(C)C	x	95	i	1.1	4	x	x
CC(CN1C(C)CCCC1C)OC(=O)c1ccc(Cl)cc1 (centres undefined)	x	99	i	0.9	-2	-73	96
NC(=O)C1CCN(CC(=O)N2N=CCC2c2ccccc2)CC1 (centres undefined)	x	112	i	0.99	-5	14	77
O=C(c1cccc([N+](=O)[O-])c1)N1CCCN(C(=O)c2cccc([N+](=O)[O-])c2)CC1	-2.1	99	i	1	3	-64	79
O=C(NC1CC1)C1=C[C@@H](c2ccc(Br)cc2)C[C@@H](OCCCCO)O1	x	83	i	0.76	5	x	x
COc1ccc(-c2nnc(NC(=O)Cc3ccccc3)s2)c(OC)c1	x	105	i	0.95	x	x	x
O=C(NCc1ccco1)c1cccc(NC(=O)c2ccccc2)c1	-1.9	109	i	1.3	-2	-39	104
Cc1ccc(CC(=O)O/N=C(\N)Cc2ccc([N+](=O)[O-])cc2)cc1	-1.0	17*	i	1	-4	-15	77
O=c1cc(O)n(-c2ccc(Cl)cc2)c(=S)[nH]1	-1.6	100	i	0.92	1	x	x
CC(=O)Nc1c(C(=O)c2ccccc2)oc2ccccc12	-1.5	103	i	0.93	-1	71*	35*
NC1=NC(=O)/C(=C\c2cccs2)S1	-2.8	101	i	0.89	14	-33	96
CN1CCc2c(c3c(n2C)CCN(C)[C@@H]3c2cccnc2)[C@H]1c1cccnc1	-1.8	103&79	i	0.99	0&-3	11	62
Clc1cc(Br)ccc1OCCOCCN1CCOCC1	-0.4	182	i	0.82	0	-50	140
CCOc1ccc(NC(=O)NCCCN2CCCC2)cc1	0.3	97	i	1	0	48	76
COc1ccccc1N1CCN(C(=O)c2cc3sccc3n2C)CC1	-2.3	107	i	0.99	-13	23	124
O=C(CSc1nnc(-c2ccco2)n1-c1ccccc1)N1CCc2ccccc21	-1.2	x	x	x	3	-27	188
Cc1cc(NS(=O)(=O)c2ccc(Nc3nc(-c4ccc(C)c(C)c4)cs3)cc2)no1	0.1	140	i	1	5	31	109
Cc1cccc(Nc2nc(-c3c(C)nc4ccccn34)cs2)c1	-2.0	95	i	0.74	-10	x	x
COc1ccc(Cl)cc1C(=O)NCC(c1ccco1)N1CCCC1 (centres undefined)	-1.4	100	i	0.94	1	-244	44
CCC1=NN2C(=N)/C(=C\c3cccn3-c3ccc(C)c(C)c3)C(=O)N=C2S1	x	105	i	0.9	-4	0	107
C=CCn1cc(C(=O)NCCCOC)c(=O)c2cc(S(=O)(=O)N(CC)CC)ccc21	-1.1	100	i	0.9	11	x	x
C=CCn1c(=S)[nH]c2ccc(Br)cc2c1=O	-0.7	99	i	1.1	-5	13	72
N#Cc1ccc(OCC(=O)OCC(=O)NCCC2=CCCCC2)cc1	-0.8	84	i	1	-15	x	x

Later entries.
SMILES	GALR2 ag	RGS16-Gao	HSV augment	HSV augment primary fold	PKD1 inh	INS promoter inh	INS promoter inh cell count
COC(=O)c1ccc(NC(=O)c2cn(-c3ccccc3)nc2-c2ccncc2)cc1	-2.1	102	i	1.1	4	-110	96
COc1ccccc1OCCOCCOc1c(C)cc(C)cc1Br	-1.2	227*[activator]	i	1	-6	28	111
CC(C)Oc1ccc(NC(=O)CCC(=O)O)cc1	-0.7	99	i	0.84	1	13	114
COc1cccc(C(c2nnnn2Cc2ccco2)N2CCN(Cc3ccccc3)CC2)c1OC (centres undefined)	x	108	i	0.92	3	13	84
NC(=O)NC(=O)COC(=O)c1ccccc1Oc1ccccc1	0.3	107	i	0.98	7	-119	34
CCCOc1ccc(/C=N/NC(=O)C2CCCN2S(=O)(=O)c2ccc(Cl)cc2)cc1 (centres undefined)	-3.4	94	i	0.71	5	-8	136
CCOCC(=O)Nc1ccc(C(=O)Nc2ccccc2Cl)cc1	x	112	i	0.96	-1	x	x
CCOC(=O)c1c(C)n(C)c2ccc(OC)c([N+](=O)[O-])c12	x	99	i	0.92	-3	x	x
CCOC(=O)c1sc(NC(=O)CC)nc1C	x	100	i	0.96	-4	x	x
COc1cc(/C=C(\C#N)C(=O)N2CCOCC2)ccc1OCc1ccccc1	x	108	i	0.98	0	x	x
CC1(C)Cc2c(sc(NC(=O)COc3cccc4ccccc34)c2C#N)C(C)(C)N1	x	89	i	0.73	x	x	x
COc1ccc(N(CC(=O)N2CCc3ccccc3C2)S(C)(=O)=O)cc1OC	-0.6	106	i	0.66	5	-40	55
O=C(N/N=C\c1cccc(Cl)c1)c1n[nH]c2c1CCCC2	-0.6	81	i	0.69	-5	7	107
Cc1cccc(C(C)C)c1NC(=O)C1CN(S(=O)(=O)c2ccccc2)CCN1S(=O)(=O)c1ccccc1 (centres undefined)	1.1	103	i	1.1	-1	x	x
O=C(OCCCN1C(=O)c2ccccc2C1=O)c1ccco1	-1.6	99	i	0.97	-4	-38	154
Cn1c(=O)c2c(nc(N3CCc4ccccc4C3)n2C)n(C)c1=O	x	107	i	1	2	35	115
COc1ccc(NC(=S)N2CCN(Cc3ccco3)CC2)c(OC)c1	-1.1	105	x	x	-11	x	x
COc1cc(N=C2C(=O)N3CCCc4cccc2c43)cc(OC)c1	-0.8	97	i	0.9	1	24	137
CC(C(=O)O)N1C(=O)/C(=C/c2cccn2C)SC1=S (centres undefined)	-0.6	67	i	1.2	-3	-24	109
O=C(O)CC1S/C(=N\N=C/c2ccccc2O)N(c2ccc(O)cc2)C1=O (centres undefined)	x	104	i	0.87	-3	-8	115
CN1CCN(Cc2nc3c([nH]2)c(=O)[nH]c(=O)n3C)CC1	-1.7	106	i	0.76	9	x	x
COC(=O)C(C#N)c1nc2ccccc2nc1N1CCCC1 (centres undefined)	-2.2	101	i	1	-10	44	90
CC(=O)c1c(C)[nH]c(C(=O)CSc2nnc(-c3ccco3)n2Cc2ccccc2)c1C	-1.0	95	i	0.95	-6	x	x
CCOC(=O)C1(CC2CCCCO2)CCN(Cc2ccccc2-c2ccco2)CC1 (centres undefined)	x	98	i	1	-7	x	x

Retrieved by structure from the list above:
SMILES	GALR2 ag	RGS16-Gao	HSV augment	HSV augment primary fold	PKD1 inh	INS promoter inh	INS promoter inh cell count
O=C(N/N=C\c1cccc(Cl)c1)c1n[nH]c2c1CCCC2	-0.6	81	i	0.69	-5	7	107
Cc1cccc(C(C)C)c1NC(=O)C1CN(S(=O)(=O)c2ccccc2)CCN1S(=O)(=O)c1ccccc1 (centres undefined)	1.1	103	i	1.1	-1	x	x
CC(C(=O)O)N1C(=O)/C(=C/c2cccn2C)SC1=S (centres undefined)	-0.6	67	i	1.2	-3	-24	109
COC(=O)C(C#N)c1nc2ccccc2nc1N1CCCC1 (centres undefined)	-2.2	101	i	1	-10	44	90
CC(=O)c1c(C)[nH]c(C(=O)CSc2nnc(-c3ccco3)n2Cc2ccccc2)c1C	-1.0	95	i	0.95	-6	x	x

The listing picks up with the three entries that preceded the break.
SMILES	GALR2 ag	RGS16-Gao	HSV augment	HSV augment primary fold	PKD1 inh	INS promoter inh	INS promoter inh cell count
COC(=O)C(C#N)c1nc2ccccc2nc1N1CCCC1 (centres undefined)	-2.2	101	i	1	-10	44	90
CC(=O)c1c(C)[nH]c(C(=O)CSc2nnc(-c3ccco3)n2Cc2ccccc2)c1C	-1.0	95	i	0.95	-6	x	x
CCOC(=O)C1(CC2CCCCO2)CCN(Cc2ccccc2-c2ccco2)CC1 (centres undefined)	x	98	i	1	-7	x	x
CC(NC(=O)c1ccc(N(C)C)cc1)C(c1cccs1)N1CCN(C)CC1 (centres undefined)	-2.2	101	i	0.82	-4	-300	77
COc1cc(C#N)ccc1OCC(=O)c1ccc2c(c1)OCCO2	-2.1	78	i	0.91	-7	30	91
CCCC(CCC)C(=O)NCCN1CCOCC1	2.9	96	i	1.1	-14	32	84
CC(C)CCN1CCN(Cc2nc3ccccc3s2)CC1CCO (centres undefined)	x	93	i	1.1	10	-7	90
FC(F)(F)c1nnc2ccc(-n3ccnc3)nn12	-2.4	100	i	0.95	-7	x	x

Screening results (PubChem BioAssay)
